# Vaccinia Venus: vaccinia inhibition (Venus reporter); AID 720580; Vaccinia virus Venus reporter expression, fluorescence; Potency, µM (doses to about 36.5 µM), for the others: top-dose activity change, negative = inhibition, usual class: inhibitors; actives 0.46% (n = 330,000); active means well fitted inhibition curve with a large enough effect; inconclusive means small, poorly fitted or top-dose-only effect; inactive means no such curve, though single readings can be large or run the other way; tested in A549 cells; also: nearly all actives have a fitted effect of over 30% in size; inactives centre near -10
# Vaccinia mCherry: inhibitors of vaccinia virus infection (mCherry reporter signal) | Vaccinia virus mCherry reporter infection, fluorescence; about a quarter of the inactives have no number | Potency, µM (top dose mostly 36.5 µM), for inactives: top-dose activity change, negative = inhibition, most hits filed as inhibitors | actives 0.63% (n = 310,000) | AID 720579; active = well fitted inhibition curve with a large enough effect; inconclusive = small, poorly fitted or top-dose-only effect; inactive = no such curve, though single readings can be large or run the other way; tested in A549 cells; also: nearly all actives have a fitted effect of over 35% in size; inactives centre near -10
# Starred values were filed as active, the others as inactive; i = inactive; ? = inconclusive; / = not tested or not shown; & = joins results of further samples; [ ] = another dose, or the depositor's remark. % is scaled to controls: 0 for no effect and ±100 for the full control effect; potency is read from the fitted curve at half-maximal effect.
SMILES	Vaccinia Venus	Vaccinia mCherry
O=C(CN(C(=O)c1csnn1)c1ccc(F)c(Cl)c1)NC1CCCCC1	-7%	i
O=C(c1ccco1)N1CCN(C2CN(CCc3ccccc3)S(=O)(=O)C2)CC1 (stereo not given)	6%	i
Cc1ccn(CCC(=O)NC2CC(C)(C)Cc3c2cnn3-c2ccccc2C)n1 (stereo not given)	-9%	i
C=C(C)CC1(NC(C)c2ccccc2)CCCCC1 (stereo not given)	-9%	-22%
Cc1csc(=O)n1CCC(=O)OCC(=O)Nc1ncc(Cl)cc1Cl	-3%	i
Cc1ccc(S(=O)(=O)N2CCN(CC(O)c3ccccc3)CC2)cc1 (stereo not given)	-7%	0%
O=C(CN1C(=O)c2ccccc2C1=O)Nc1ccccc1C(=O)NC1CCCCC1	-6%	-14%
CCN(CC)S(=O)(=O)c1ccc2c(c1)N(CC(=O)NCCCN1CCN(c3cc(Cl)ccc3C)CC1)C(=O)CO2	-17%	-21%
Cc1ccc2c(c1)N(C(=O)CCC(=O)N1CCN(c3cccc(C)c3C)CC1)CCO2	?	?
O=C(NCC(=O)N1CCCC1)NN=Cc1ccccc1O	8%	2%
C[n+]1c(/C=C/c2ccc3c(c2)OCO3)ccc2ccccc21	-14%	i
CN(C)c1ccc(C(=S)N2CCCC2)cc1Br	-3%	-12%
O=C1/C(=C2/NCCN2C2CC(=O)N(c3ccccc3)C2=O)CC/C1=C\c1ccccc1 (stereo not given)	-11%	-3%
COc1ccccc1NC(=O)NCC1(N(C)C)CCCCC1	-6%	i
Cc1ccc(C(C)C)c(OCC(O)CN2CCN(c3ccccc3F)CC2)c1 (stereo not given)	-22%	-19%
O=C(CN1CCOCC1)N1CCCc2ccccc21	-7%	i
CC(=O)Nc1ccc(NC(=O)CSCc2ccccc2Cl)cc1	-17%[7.34 µM]	-4%[7.34 µM]
Cc1cccc(OCCCC(=O)Nc2ccc(S(=O)(=O)Nc3nccs3)cc2)c1C	-6%	-19%
CCC(C)(C)NC(=O)c1ccc(S(=O)(=O)N2CCCCCC2)cc1	-3%	-4%
CCOc1ccccc1NC(=O)C1=C(C)Nc2ncnn2C1c1sccc1C (stereo not given)	-7%	-14%
COc1cccc(NC(=O)CN(C)C(=O)c2c(C)nn(Cc3ccc(C)cc3)c2Cl)c1	-8%	-18%
Cn1nc(-c2ccc(Cl)cc2)c2cc(C(=O)NCCCN3CCCC3)sc21	?	-28%
Cc1ccc(S(=O)(=O)c2cn(C)c3cc(N4CCN(C)CC4)c(F)cc3c2=O)cc1	-7%&-26%	-25%&-18%
O=C(CC1S/C(=N/N=C/c2ccco2)NC1=O)Nc1ccccc1 (stereo not given)	-2%	-13%
O=C(NC1CC1)c1cccc(NC(=O)C2CC2)c1	4%	i
Nc1ccccc1N=Cc1ccc(-c2cccc(Cl)c2)o1	?	-9%
Cc1ccc(S(=O)(=O)/N=C(/NC(=S)Nc2ccccc2)c2ccccc2)cc1	-16%	i
O=C(Cc1ccc(Cl)cc1)Nc1ccccc1N1CCOCC1	?	/
Clc1ccccc1Cn1nnc2c(NCCN3CCOCC3)ncnc21	-11%	-9%
CCC1(C)Cc2c(sc3[nH]c(=S)[nH]c(=S)c23)CO1 (stereo not given)	-14%	i
COc1ccc(NS(=O)(=O)c2ccc(NS(=O)(=O)c3cccs3)cc2)c(OC)c1	-4%	-7%
CCNc1nc2c(c(=O)[nH]c(=O)n2C)n1Cc1ccc(F)cc1	-4%	i
Fc1ccc(COc2ccc(C(=S)N3CCCC3)cc2)cc1	-10%	-16%
CCOC(=O)C1=C(C)NC(=O)NC1c1ccc(OC(=O)c2ccco2)cc1 (stereo not given)	-9%	/
O=C(Nc1cccc(F)c1)Nc1ccnn1C1CCN(C(=O)CCN2CCCO2)CC1	-13%	-16%
Cc1c(C(c2ccc(F)cc2)c2c(O)c3ccccc3oc2=O)c(=O)n(-c2ccccc2)n1C (stereo not given)	-6%&-5%	-10%&-9%
CN(C)c1ccc2ccc3cccc4ccc1c2c34	10%	i
CCN(CC(=O)NCCc1ccc(S(N)(=O)=O)cc1)Cc1ccccc1	-24%	-6%
CCc1nn2c(=O)cc(COC(=O)c3ccc4c(c3)OCO4)nc2s1	-11%	1%
COc1ccc(NC(=O)N2CCCC(C(=O)NCc3ccccc3F)C2)cc1 (stereo not given)	-6%	-14%
Nc1ccn([C@@H]2O[C@H](CNCc3ccc(-c4cc(C(F)(F)F)ccc4Cl)o3)[C@@H](O)[C@H]2O)c(=O)n1	-5%	-18%
CC1C(=O)N(Cc2cn(CCC3OCCO3)nn2)CCS(=O)(=O)N1Cc1ccc(-c2cccc(CO)c2)cc1 (stereo not given)	-7%	i
O=C(Nc1ccc(N2CCOCC2)cc1)C1CC(=O)N(c2ccc(Cl)cc2)C1 (stereo not given)	3%	-6%
CC(=O)c1ccc(OCC(O)CN2CCC(C)CC2)cc1 (stereo not given)	-5%	i
COc1ccccc1-n1c(N)cc(=O)nc1SCC(=O)Nc1cc(C)on1	-10%	-3%
CCC(CC)C(=O)OCC(=O)Nc1cccc(S(=O)(=O)N(C)c2ccccc2)c1	-12%	i
Cc1nc(NCCNC(=O)c2ccco2)c2c(C)c(C)sc2n1	-19%	i
Cc1cccc(NC(=S)NC2CC3CCCC(C2)N3Cc2cccs2)c1 (stereo not given)	?	?
COc1ccc(NC(=O)CNc2ccc(OC)c(S(=O)(=O)N3CCOCC3)c2)cc1	-8%	-27%
COc1ccccc1NC(=O)CN(Cc1ccco1)C(=O)c1ccc(N2CCCC2=O)cc1	-16%	-27%
CCN(C[C@H]1N[C@@](C)(C(=O)OC)[C@H]2C(=O)N(Cc3ccccc3)C(=O)[C@@H]12)S(=O)(=O)c1ccc(F)cc1	-4%	i
Cc1ccc(-c2ccc(=O)n(CCC(=O)NCCN3CCCCC3C)n2)cc1 (stereo not given)	-19%	/
C[C@H]1CCC[C@@]2(O[C@@H](CCO)C[C@@H](O)[C@@H]2O)O1	-8%	i
CCN(CC)S(=O)(=O)c1ccc(O)c(C(=O)OCC(=O)N(C)Cc2ccccc2)c1	-5%	/
NC1=C(c2ccc(F)cc2)C(=O)CS1	-11%	/
CN(C)C(=O)/C(=C/c1ccc(-c2cccc([N+](=O)[O-])c2)o1)NC(=O)c1ccccc1	-15%	-8%

# Carrying on.
SMILES	Vaccinia Venus	Vaccinia mCherry
COc1ccc(S(=O)(=O)N2CCCN(CC(=O)Nc3ccc4c(c3)OCO4)CC2)cc1	-5%	-17%
COc1ccc(S(=O)(=O)N2CCN(C3Cc4ccccc4C3)CC2)cc1	-15%	-9%
CC1=CC(C)(C)NC(=S)N1c1ccccc1C	-2%&-14%	-4%&-10%
COC(=O)C(C#N)(CCC(=O)c1ccccc1)CCC(=O)c1ccccc1	12%	30%
c1ccc(C(CN2CCCCC2)Oc2ccccn2)cc1 (stereo not given)	-7%	i
Cc1ccc(S(=O)(=O)c2nnn3c2nc(N2CCCC(C)C2)c2cc(Cl)ccc23)cc1C (stereo not given)	-14%	-2%
CC1CCC2(CC1)NC(=O)N(NC(=O)CCl)C2=O (stereo not given)	?	16µM*
C=CCNc1nc(C(=O)OCC(=O)Nc2c(Cl)cccc2C(F)(F)F)cs1	-14%	-13%
CC(=O)Nc1ccc(S(=O)(=O)Nc2cccn(Cc3ccc(C)cc3)c2=O)cc1	-7%	-6%
CC1CC(C)CN(C(=S)SCc2nc(N)nc(Nc3ccccc3)n2)C1 (stereo not given)	-23%[7.34 µM]	-15%[7.34 µM]
O=C(Nc1ncc(Cc2ccccc2Cl)s1)C1CCCO1 (stereo not given)	1%	-8%
O=C(NCCCN1CCCC1=O)c1cc(-c2ccc3c(c2)OCO3)nc2ccccc12	0%	i
COc1cc(/C=C(\C#N)C(=O)Nc2ccccc2C(=O)O)cc(Cl)c1OC	-8%	-12%
O=C1CSC2(N1)C1CC3CC(C1)CC2C3 (stereo not given)	-3%	i
CCC(=O)Nc1ccccc1-c1nc2ccccc2n(CC(=O)c2ccc(Br)cc2)c1=O	-9%	-16%
COc1ccccc1N1CCN(C(=O)CSc2ccccc2)CC1	-22%	/
COc1ccc(/C(O)=C2/C(=O)C(=O)N(c3ccccn3)C2c2ccc(OC)c(OC)c2)cc1 (stereo not given)	-13%	i
COc1ccc(C(=O)NCc2nnc(SCC(=O)N3CCC(C)CC3)o2)cc1	-2%	i
CCCCNC(=O)c1nc(-c2cccnc2OC)oc1-c1ccc(Cl)cc1	-8%	-22%
CSc1sc(C(=O)Nc2ccc(F)cc2F)c2c1C=CCC2	-4%	-9%
O=C(NCCCN1CCOCC1)c1ccc(Br)cc1	9%	/
COC(=O)c1sc2nc(-c3ccccc3)nc(N3CCN(C)CC3)c2c1C	-22%	?
CNC(=O)c1c(NC(=O)c2ccc(S(=O)(=O)N3CCCCC3)cc2)sc2c1CCC2	-16%	-12%
COc1ccc(N2CC(NC(=O)COc3ccc4ccccc4c3)CC2=O)cc1OC (stereo not given)	-11%	-2%
N#C/C(=C(/O)CN1CCCCC1)c1nc(-c2ccc(Cl)cc2)cs1	-17%	i
NC(=O)N/N=C(/CCCCCC/C(=N\NC(N)=O)c1ccccc1)c1ccccc1	-27%	i
C/C1=C\[C@@H](C)C/C=C/[C@H]2[C@@H]3O[C@]3(C)[C@@H](C)[C@H]3[C@H](Cc4c[nH]c5ccccc45)NC(=O)[C@]32C(=O)/C=C/C(=O)[C@@H]1O	?	?
COc1ccc(C(=O)N2CCCc3ccccc32)cc1OC	-15%	i
C=CCC(C(=O)Oc1c(C(C)(C)C)cc(C)cc1C(C)(C)C)c1ccccc1 (stereo not given)	-4%	i
CN(Cc1ccccc1)C(=O)COC(=O)c1ccc(=O)n(Cc2ccccc2)n1	-10%	i
O=C(Cn1ncc2c3ccccc3n(Cc3ccccc3F)c2c1=O)N1CCCCCC1	-21%	-18%
COCCN(Cc1ccccc1)C(=O)C1CCN(S(=O)(=O)c2ccc(OC)c(OC)c2)CC1	-9%	0%
Cc1cccc(CSc2nnc3[nH]c(=O)cc(-c4ccccc4)n23)c1	-2%	-12%
O=[N+]([O-])c1c(NCCCO)cc(Sc2ccc(Cl)cc2)c2nonc12	-19%	-3%
CCOc1ccc2nc(NC(=O)CN3CCN(C)CC3)sc2c1	-17%	/
C[C@H]1COc2cccc(N3CCSCC3)c2S(=O)(=O)N1	-2%	0%
O=C1c2ccccc2-n2nncc2C2c3cc(Br)ccc3CCN12 (stereo not given)	6%	3%
COc1cccc(CN2CCN(S(=O)(=O)c3ccc(NC(C)=O)cc3)CC2)c1OC	-7%	-20%
COCCOC(=O)C1=C(C)N(c2ccccc2)C(=O)NC1c1cccc([N+](=O)[O-])c1 (stereo not given)	-25%	?
COCCNC(=O)C1CCCN(C(=O)c2sccc2C)CC1 (stereo not given)	3%	33%[activator]
Cc1ccc(NC(=O)Cn2c(=O)ccc3cc(S(=O)(=O)N4CCC(C)CC4)ccc32)cc1C	-28%	-19%
O=S(=O)(c1cccc(F)c1)N1CCN(C(=S)NCC2CCCO2)CC1 (stereo not given)	-10%	-2%
CCOC(=O)N1CCN(C(=O)CSc2nnc(-c3ccccc3OC)o2)CC1	-42%	/
O=C(CCCC(=O)N(c1ccc(F)cc1)C(C(=O)NC1CCCC1)c1ccc(O)cc1)Nc1ccccn1 (stereo not given)	-11%	i
COc1ccc(CC(=S)N2CCOCC2)cc1	-6%	-9%
CCCCN(C)CCCN1C(=O)C2C(C(=O)Nc3cccc(OC)c3)C3C=CC2(O3)C1C(=O)NC1CCCCC1C (stereo not given)	-10%	1%

# Compounds were not picked by outcome; any-hit rate near 0.87%.
